Six1-Eya2 inh: Six1/Eya2 interaction inhibition. Q15475+O00167. AlphaScreen GST-Six1/His-Eya2 binding, biochemical; hits give low values; control for the full effect not named in the record. activity change, % (test concentration not listed). actives 0.56% (n = 360,000); in the data active = activity change below about -65%; inconclusive = about -30% to -65%; inactive = above about -30%; note: % is set by controls: 0 for no effect and ±100 for the full control effect; compound concentration not given in the record
Target sequence (O00167 whole entry, looked up): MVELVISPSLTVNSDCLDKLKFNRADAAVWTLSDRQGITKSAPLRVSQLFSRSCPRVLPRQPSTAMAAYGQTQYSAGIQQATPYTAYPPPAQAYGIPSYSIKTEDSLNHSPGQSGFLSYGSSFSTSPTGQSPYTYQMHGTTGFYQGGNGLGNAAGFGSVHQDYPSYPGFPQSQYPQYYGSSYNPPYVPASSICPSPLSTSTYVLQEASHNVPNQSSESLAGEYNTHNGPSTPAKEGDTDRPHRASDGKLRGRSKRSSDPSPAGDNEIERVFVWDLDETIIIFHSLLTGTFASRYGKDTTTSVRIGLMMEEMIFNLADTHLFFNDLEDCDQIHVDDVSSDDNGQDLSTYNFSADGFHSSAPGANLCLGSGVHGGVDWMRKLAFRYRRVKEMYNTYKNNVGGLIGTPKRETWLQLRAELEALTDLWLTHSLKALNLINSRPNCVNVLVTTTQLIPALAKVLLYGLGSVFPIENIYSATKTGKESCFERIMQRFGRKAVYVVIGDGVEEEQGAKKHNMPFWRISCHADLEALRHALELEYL
Target sequence (Q15475 whole entry, looked up): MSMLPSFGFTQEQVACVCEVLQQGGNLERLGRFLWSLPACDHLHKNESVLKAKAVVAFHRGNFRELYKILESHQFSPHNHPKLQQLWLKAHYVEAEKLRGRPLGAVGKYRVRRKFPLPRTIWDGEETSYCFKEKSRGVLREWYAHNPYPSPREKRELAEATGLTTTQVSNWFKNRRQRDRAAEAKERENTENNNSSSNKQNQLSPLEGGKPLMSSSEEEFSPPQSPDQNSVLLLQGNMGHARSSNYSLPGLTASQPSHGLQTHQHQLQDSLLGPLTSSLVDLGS
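AlphaScreen luminescence read after one hour at 37 °C in darkness. Pin-transferred compounds met GST-Six1 and His-Eya2 protein (5X stock 250 nM/500 nM) plus glutathione donor and Ni-chelate acceptor beads (5X, 50 ug/mL).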
D2 ag: activates the human D2 dopamine receptor. P14416. DiscoveRx PathHunter D2 beta-arrestin, luminescence, 90 min; 100% = 57 uM dopamine signal. activation, % (test concentration not listed). actives 0.084% (n = 360,000); in the data active = activation above about 40%; inconclusive = about 15% to 40%; inactive = below about 15%; note: compound concentration not given in the record; the text of the record calls up to 30% inactive
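Agonist mode: compounds alone added to overnight-plated D2 PathHunter cells for 90 min at 37 C, with 57 uM final dopamine (EC100) defining full response. Beta-arrestin recruitment detected by chemiluminescent reagent, read after 1 h at ambient temperature.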
TRPML1 ag: human mucolipin-1 channel agonism; AID 624414; TRPML1-expressing cells, Ca2+ dye fluorescence, FDSS; host cell line not named in the record; reference of the full effect not given here; actives 0.12% (n = 410,000); activation, % (concentration not given with the values); in the data active = activation above about 50%; inconclusive = about 30% to 50%; inactive = below about 30%; note: 0% is about no effect; the text of the record puts the active cut at 80%
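Calcium fluorescence on an FDSS kinetic reader gave the read-out. Tet-induced TRPML1-DL cells were plated overnight, dye-loaded (Ca8 with quencher, 45-90 min, room temperature, dark), then read 110 s after compound addition, and again 110 s after 4uM final 54-4 (EC80).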
D2 PAM: potentiates the human D2 dopamine receptor allosterically; potentiation, % (no concentration beside the values); actives 0.23% (n = 360,000); AID 624464; DiscoveRx D2 beta-arrestin cells, luminescence, 90 min; 100% = 57 uM dopamine signal; active = potentiation of 50% or more; inconclusive = 30% to 50%; inactive = 30% or less;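 note: compound concentration not given in the record; tested on top of an EC20 dose of dopamine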
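PathHunter D2 cells, attached overnight at 37 deg C, received compound in DMSO plus dopamine at EC20 (50 nM final) for 90 min at 37 deg C. Beta-arrestin recruitment was read as luminescence after 1 h with detection reagent at ambient temperature.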
TRPML1 inh: blocks the human TRPML1 channel; actives 0.02% (n = 390,000); activity change, negative = inhibition, % (test concentration not listed); TRPML1-inducible cells, Ca2+ dye fluorescence, FDSS; hits give low values; inhibition of EC80 agonist-evoked calcium signal; in the data active means activity change below about -50%; inconclusive means about -30% to -50%; inactive means above about -30%;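 note: stimulus is agonist 54-4 at its EC80 concentration; % is set by controls: 0 for no effect and ±100 for the full control effect; compound concentration not given in the record; the text of the record puts the active cut at -80%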
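TRPML1-DL cells, Tet-induced overnight (~16 h, 37 °C) at 1,500 cells/well, were loaded with Ca8 no-wash dye plus quencher for 45-90 min at room temperature. Compounds were pinned during FDSS kinetic reading; agonist 54-4 at EC80 (4 uM final) then added.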
PINK1 expr mod: PINK1 expression modulation; Potency, µM (highest dose often 76.6 µM), without a hit: at the top dose activation (PINK1 increase), hits mostly activators; PINK1 immunofluorescence, high-content cytometry, 24 h; AID 624263; actives 0.2% (n = 410,000); active = well fitted activation curve with a large enough effect; inconclusive = small, poorly fitted or top-dose-only effect; inactive = flat fitted curve, though single readings scatter; cell line not stated here;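 note: potency is the fitted concentration of half-maximal effect; % of control where 0% means no effect; nearly all actives have a fitted effect of over 65% in size; a mitochondrial uncoupler was the plate control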
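Fluorescence from anti-PINK1 antibody, together with nuclear and cell stains, was scanned on a laser-scanning cytometer. Before staining, stable-line cells were incubated 24 hours with compounds at 5 concentrations; primary antibody 12 h at 10 degrees C.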
* marks the source's active call; other numbers are inactive results; ? = inconclusive; . = not tested or not shown; & = joins results of further samples; [ ] = remark or other dose.

compound	Six1-Eya2 inh	D2 ag	TRPML1 ag	D2 PAM	TRPML1 inh	PINK1 expr mod
CCc1cccc2c(C=C(C#N)C#N)cn(CC(=O)N3CCCC3)c12	4.1	-1.8	1.5	-7.2	4.0	5.5%[38.3 µM]
CCn1c(C)[n+](CC)c2ccc(C(=O)N(C)c3ccccc3)cc21	4.3	-4.4	-0.2	-7.7	4.3	-1.2%
C(=NN=C(NN=Cc1cccs1)NN=Cc1cccs1)c1cccs1	-23.8	4.4	0.0	-17.6	-9.1	2.3%
CCCCNC(=O)CSc1nc(O)cc(=O)n1C1CCCC1	5.5	-0.8	0.3	-9.2	17.4	0.1%
COc1cc(OC)c(/C=N/NC(=O)c2ccncc2)c(OC)c1	-8.5	1.4	0.0	-5.5	-16.0	0.0%
O=C(O)c1cccc(N/N=C/c2ccc(-c3ccccc3)cc2)c1	-5.4	-1.7	-0.6	-13.5	5.2	5.3%
Cc1ccc(NC(=O)CCS(=O)(=O)c2cc3[nH]c(=O)c(=O)[nH]c3cc2C)cc1	-0.1	1.2	-0.4	-9.5	33.3	0.7%
CC(C)NC(=O)Cn1c(SCC(=O)N2c3ccccc3CC2C)nc2ccccc21 (stereo unspecified)	1.2	-1.1	0.2	-2.7	-9.7	7.1%[38.3 µM]
Cn1cc([N+](=O)[O-])c(C(=O)n2cccn2)n1	27.5	-6.0	0.5	4.1	23.3	0.3%
O=C(Nc1cccnc1)c1ccco1	3.4	-1.5	0.2	7.0	-5.1	-1.9%[38.3 µM]
CN(C)c1ccc(S(=O)(=O)NCC(=O)OCC(=O)NC(=O)C2CCCCC2)cc1[N+](=O)[O-]	-4.2	-5.4	-0.3	-2.9	3.6	2.5%
COC(CNC(=O)c1cnn2c(C)c(Cc3ccccc3)c(C)nc12)OC	8.1	-1.5	-1.0	-6.5	4.0	-0.2%
O=C(NCc1ccncc1)C1CCCN(S(=O)(=O)c2cc(Cl)ccc2Cl)C1 (stereo unspecified)	-4.1	-1.4	-0.4	-3.1	20.3	2.9%
CCC/C=C/c1ccc(CN2C(C)C(=O)N(Cc3cn(CCC4OCCCO4)nn3)CCS2(=O)=O)cc1 (stereo unspecified)	-8.8	0.2	.	.	.	2.0%
CCc1cccc(NC(=O)CCc2c(C)nn(-c3ccc(N4CCCCC4)nn3)c2C)c1	-1.1	-0.2	2.5	5.0	-17.8	-1.4%
CCOC(=O)N1CCN(c2c(N3CC=C(c4ccccc4)CC3)c(=O)c2=O)CC1	-8.9	5.8	-0.2	6.0	11.7	-0.8%
CN(C(=O)COC(=O)c1nc(Cl)c(Cl)c(Cl)c1Cl)C1CCS(=O)(=O)C1 (stereo unspecified)	-1.6	-13.9	-0.9	-1.7	5.3	-2.8%
CC(CCc1ccccc1)NC(=O)C(Cc1ccccc1)NS(=O)(=O)c1cccs1 (stereo unspecified)	-1.6	-1.9	3.5	-6.7	-3.8	.
COc1ccc(Cl)c(Cn2c(NCCCO)nc3c2c(=O)n(C)c(=O)n3C)c1	3.4	-3.1	-0.7	-14.6	6.0	-1.0%
Cc1nc(-c2ccc(S(=O)(=O)N3CCN(C4c5ccccc5-c5ccccc54)CC3)s2)cs1	-2.9	-1.2	0.4	-6.0	-4.9	1.6%
CC1(C(=O)NCc2ccc3c(c2)OCO3)CCN1C(=O)CC1CCCC1 (stereo unspecified)	5.9	10.2	-1.0	1.6	.	-0.8%
O=C(NCCc1ccc(F)cc1)c1cccc(NC(=O)c2ccccc2)c1	-1.2	-7.1	1.6	-1.8	19.0	3.8%
CC1CN(Cc2ccccc2)C(=O)NC1=O (stereo unspecified)	8.7	-3.3	-0.7	-0.8	-5.6	3.8%
Cn1ccnc1SCC(=O)c1ccc(Br)cc1	-9.4	-3.5	-0.3	-8.7	3.9	.
Cc1ccc(Cl)cc1NC(=O)C1CCN(c2nc3ccccc3n3cccc23)CC1	.	.	2.2	.	-15.6	-0.3%
CCn1cc2c(n1)-c1c(oc(C(=O)Nc3ccc(Br)cc3F)c1C)CC2	.	.	3.1	.	20.1	-0.4%
NC(=O)c1cc([N+](=O)[O-])ccc1N1CCN(Cc2ccccc2)CC1	5.3	7.5	-0.8	-10.9	40.1	1.7%
Cc1ccc(/C=C/c2onc(C)c2S(=O)(=O)N2CCC(C(=O)Nc3cccc(C#N)c3)CC2)cc1	.	.	-0.3	.	7.2	4.2%
O=C(NCCO)c1cc2cc(Cl)cc(Cl)c2oc1=O	-3.2	0.4	0.8	-7.7	-5.0	0.6%
Cc1cc(C(=O)NNS(=O)(=O)c2cc(C(=O)O)ccc2Cl)c(C)n1-c1ccccc1	-3.7	-1.7	1.1	-8.0	30.8	-0.8%
COCc1cccc(-c2csc(C(O)c3ccc(F)c(OC)c3)n2)c1 (stereo unspecified)	6.0	5.8	-0.7	1.0	.	-0.3%
CC(C)(C)n1[nH]c2c3c(ccc2c1=O)C(=O)c1ccccc1C3=O	?	5.3	1.0	?	14.1	-1.3%
CC1C/C(=C/c2cccs2)C(=O)/C(=C/c2cccs2)C1 (stereo unspecified)	-26.2	-6.5	1.7	-13.7	-17.9	?
Cc1ccc(OCC(=O)OCCN2C(=O)c3ccccc3C2=O)cc1C	4.6	-1.9	2.3	-8.3	5.0	1.8%
CCOc1ccc(-c2nc(SCC(=O)Nc3ccc4c(c3)OCCO4)c(-c3ccc(F)cc3)[nH]2)cc1	.	.	1.1	.	8.7	3.4%
COc1ccccc1N1CCN(C(=O)c2nn(C)c3c2CS(=O)(=O)c2ccccc2-3)CC1	-1.9	-3.1	-1.3&0.4	-6.7	10.8&1.7	-1.5%&-0.4%
CC12CCC3c4cc(CN5CCOCC5)c(O)cc4CCC3C1CCC2=O (stereo unspecified)	-12.9	-2.7	0.0	-1.6	49.3	-0.9%
Cc1ccc(S(=O)(=O)NNC(=O)c2cnn(-c3ccccc3)c2-n2cccc2)cc1	-0.1	-3.8	1.1	-6.6	-3.0	-2.5%
Nc1nc(SCc2cccc(Br)c2)n[nH]1	-4.8	0.5	-1.2	-4.0	3.5	6.2%
CCn1c2ccc(Cl)cc2c2nc3ccccc3nc21	35.0	-2.0	-0.1	-14.6	16.6	1.5%[38.3 µM]
COc1ccc(NS(=O)(=O)c2cccc(C(=O)NCCCN3CCOCC3)c2)cc1	8.8	-5.3	-0.3	-20.1	-1.4	4.4%
CC(=O)N(O)CCCCCNC(=O)CCC(=O)N(O)CCCCCNC(=O)CCC(=O)N(O)CCCCCN	-2.7&-4.0	1.1&1.0	-0.2&-0.2	1.1&-3.1	-0.3&4.0	-0.3%&0.0%
CCn1c(SCC(=O)N(C)c2c(N)n(Cc3ccccc3)c(=O)[nH]c2=O)nc2ccccc21	7.2	-2.7	0.6	-7.1	5.1	0.2%
O=C(COC(=O)c1ccc(Cl)nc1)Nc1ccccc1OC(F)F	7.3	-1.4	-0.5	-4.5	-7.1	-0.1%
COc1ccc(-c2cc(C(=O)Nc3cnn(Cc4ccccc4C)c3)no2)cc1OC	19.5	0.8	2.8	-6.4	81.0	?
O=C(NCc1ccncc1)C(=O)N/N=C/c1ccccn1	-0.9	3.9	-0.8	8.9	3.8	1.3%
Cc1ccc(NC(=O)c2cccc(F)c2)cc1S(=O)(=O)N1CCCCCC1	-8.3	0.8	1.7	0.5	20.9	5.5%
O=C(C[C@H]1C(=O)N(c2ccccc2)C[C@@H]1Cc1ccccc1)Nc1ccccc1	-4.0	-4.5	-0.6&0.4	4.1	8.3	0.4%
CC(=O)N1CCc2c(sc3c2c(=O)n(-c2ccccc2)c(=O)n3CC(=O)Nc2cc(C)cc(C)c2)C1	.	.	0.9	.	13.5	3.0%
O=C(CC1C(=O)NCCN1Cc1cccc(F)c1)NCCCN1CCCC1=O (stereo unspecified)	0.2	-5.3	-0.2	4.5	-11.1	0.9%
CCC(=O)N1CCc2cc(S(=O)(=O)NCCC(=O)Nc3ccc(OC)cc3)ccc21	-2.9	2.9	-1.1	1.8	-2.9	-0.3%
Cc1ccc(N=CC2=C(O)CC(c3ccccc3Cl)CC2=O)cc1 (stereo unspecified)	3.8	-0.2	1.2	8.0	8.2	3.7%
CCCCOC(=O)c1ccc(NC(=O)Nc2ccc(OC)c(OC)c2)cc1	-13.0	0.8	-1.0	8.2	-10.5	0.3%
O=C(NCc1ccco1)C1CC(c2ccc(Cl)c(Cl)c2)=NO1 (stereo unspecified)	-1.8	-3.0	-0.5	-5.8	-5.5	-0.3%
Cn1c2ccccc2c2cc(/C=N/NC(=O)c3cc(O)ccc3O)ccc21	-68.7*	?	0.1	28.1	-10.0	?
Clc1ccc(OCCn2ccnc2)cc1Cl	-1.9	3.9	-0.2	-10.0	-6.7	1.2%
Cc1ccccc1CN1C(=O)C(C)Sc2ccc(-c3ccco3)cc21 (stereo unspecified)	-2.7	4.5	-0.1	-36.8	.	1.7%
COc1ccc(Nc2c(-c3ccco3)nc3ccc(C)cn23)cc1	-3.7	5.7	1.3	10.0	3.1	0.5%
CC(c1n[nH]c(=S)n1-c1ccc(Cl)cc1)N(C)C (stereo unspecified)	-6.3	1.8	0.6	6.3	25.4	1.5%
Nc1ncccc1C(=O)OCC(=O)NC1CCCCCC1	-1.6	-2.8	0.1	-0.3	7.6	0.0%

Profiles as entered above. Screens in order: Six1-Eya2 inh	D2 ag	TRPML1 ag	D2 PAM	TRPML1 inh	PINK1 expr mod
COCc1cccc(-c2csc(C(O)c3ccc(F)c(OC)c3)n2)c1 (stereo unspecified) in the list: 6.0	5.8	-0.7	1.0	.	-0.3%
Cn1c2ccccc2c2cc(/C=N/NC(=O)c3cc(O)ccc3O)ccc21 in the list: -68.7*	?	0.1	28.1	-10.0	?

Assay outcomes as filed in PubChem BioAssay.

Random draw from the library; any-hit rate near 1%.
